D2 PAM: positive allosteric modulators of human D2 dopamine receptor; 0.23% of 360,000 active; P14416; AID 624464; DiscoveRx D2 beta-arrestin cells, luminescence, 90 min; 100% = 57 uM dopamine signal; potentiation, % (test concentration not listed); active = potentiation of 50% or more; inconclusive = 30% to 50%; inactive = 30% or less;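 further: compound concentration not given in the record; tested on top of an EC20 dose of dopamine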
Target sequence (P14416 whole entry, looked up): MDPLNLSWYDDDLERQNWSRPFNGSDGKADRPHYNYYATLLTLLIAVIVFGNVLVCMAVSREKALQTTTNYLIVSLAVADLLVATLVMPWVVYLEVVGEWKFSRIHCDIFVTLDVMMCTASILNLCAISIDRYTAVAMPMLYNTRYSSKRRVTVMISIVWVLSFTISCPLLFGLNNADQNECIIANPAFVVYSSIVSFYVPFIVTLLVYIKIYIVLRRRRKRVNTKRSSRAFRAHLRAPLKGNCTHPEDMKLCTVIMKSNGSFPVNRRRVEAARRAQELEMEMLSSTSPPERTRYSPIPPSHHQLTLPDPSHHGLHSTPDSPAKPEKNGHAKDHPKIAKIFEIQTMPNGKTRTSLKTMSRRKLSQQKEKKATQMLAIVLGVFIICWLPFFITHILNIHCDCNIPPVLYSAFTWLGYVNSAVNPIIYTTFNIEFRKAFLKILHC
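PathHunter beta-arrestin assay in DiscoveRx D2 cells. Compounds were added with an EC20 of dopamine (50 nM final) for 90 min at 37 deg C. Luminescence was read 1 h after detection reagent, with 57 uM dopamine as the EC100 control.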
Six1-Eya2 inh: Six1/Eya2 interaction inhibition; AlphaScreen GST-Six1/His-Eya2 binding, biochemical; stronger effect = lower value; control for the full effect not named in the record; activity change, % (no concentration beside the values); 0.56% of 360,000 active; AID 651725; in the data active = activity change below about -65%; inconclusive = about -30% to -65%; inactive = above about -30%; further: on the % scale 0 is the no-effect control and ±100 the full control effect; compound concentration not given in the record
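AlphaScreen with GST-Six1 and His-Eya2 (5X mix: 250 nM and 500 nM), glutathione donor and nickel acceptor beads; buffer 50 mM Tris pH 8.0, 300 mM NaCl, 1 mM TCEP; 1 h at 37 C in the dark.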
TRPML1 inh: human mucolipin-1 channel inhibition; TRPML1-inducible cells, Ca2+ dye fluorescence, FDSS; stronger effect = lower value; inhibition of EC80 agonist-evoked calcium signal; activity change, negative = inhibition, % (test concentration not listed); 0.02% of 390,000 active; AID 624415; in the data active means activity change below about -50%; inconclusive means about -30% to -50%; inactive means above about -30%;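 further: stimulus is agonist 54-4 at its EC80 concentration; on the % scale 0 is the no-effect control and ±100 the full control effect; compound concentration not given in the record; the text of the record puts the active cut at -80%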
Target sequence (Q9GZU1 whole entry, looked up): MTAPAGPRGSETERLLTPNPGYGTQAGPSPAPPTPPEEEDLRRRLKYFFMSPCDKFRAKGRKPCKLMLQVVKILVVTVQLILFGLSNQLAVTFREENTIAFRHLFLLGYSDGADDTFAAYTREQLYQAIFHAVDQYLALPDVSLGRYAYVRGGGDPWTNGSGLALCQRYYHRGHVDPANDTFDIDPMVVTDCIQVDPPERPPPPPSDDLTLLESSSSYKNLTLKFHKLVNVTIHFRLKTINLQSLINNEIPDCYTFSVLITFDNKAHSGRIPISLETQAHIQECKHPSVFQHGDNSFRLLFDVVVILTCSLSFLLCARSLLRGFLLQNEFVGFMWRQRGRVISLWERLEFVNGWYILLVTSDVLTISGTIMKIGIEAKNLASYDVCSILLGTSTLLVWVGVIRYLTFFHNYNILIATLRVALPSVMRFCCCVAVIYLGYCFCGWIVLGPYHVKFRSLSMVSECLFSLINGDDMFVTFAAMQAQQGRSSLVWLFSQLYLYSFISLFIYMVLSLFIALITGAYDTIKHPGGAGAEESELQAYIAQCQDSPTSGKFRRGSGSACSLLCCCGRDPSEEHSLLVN
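Tet-induced TRPML1-DL cells loaded with Ca8 no-wash calcium dye were read kinetically on FDSS. Compound addition was followed by EC80 agonist 54-4 (4 uM final); inhibition was read over 110 s.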
PINK1 expr mod: changes PINK1 expression; AID 624263; 0.2% of 410,000 active; Potency, µM (titrated, usually from 76.6 µM), without a hit: at the top dose activation (PINK1 increase), actives largely listed as activators; PINK1 immunofluorescence, high-content cytometry, 24 h; active = well fitted activation curve with a large enough effect; inconclusive = small, poorly fitted or top-dose-only effect; inactive = flat fitted curve, though single readings scatter; cell line not stated here;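 further: potency means the concentration at half of the fitted maximal effect; % of control where 0% means no effect; nearly all actives have a fitted effect of over 65% in size; a mitochondrial uncoupler was the plate control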
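Stable cell line, 250 cells/well, 12 h attachment; compounds pinned at 5 concentrations, 24 h; CCCP control. Fixed with nuclear dye, primary antibodies 12 h at 10 degrees C, secondary plus cell stain; laser-scanning cytometer read.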
TRPML1 ag: activates the human TRPML1 channel; 0.12% of 410,000 active; AID 624414; TRPML1-expressing cells, Ca2+ dye fluorescence, FDSS; host cell line not named in the record; reference of the full effect not given here; activation, % (no concentration beside the values); in the data active = activation above about 50%; inconclusive = about 30% to 50%; inactive = below about 30%; further: 0% is about no effect; the text of the record puts the active cut at 80%
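Kinetic FDSS Ca2+ read in Tet-induced TRPML1-DL cells (ABD Ca8 dye plus quencher, 45-90 min RT loading): baseline, then compound, then 110 s agonist window; EC80 agonist 54-4 at 4uM final added afterwards for a 110 s antagonist window.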
D2 ag: activates the human D2 dopamine receptor; P14416; DiscoveRx PathHunter D2 beta-arrestin, luminescence, 90 min; 100% = 57 uM dopamine signal; activation, % (concentration not given with the values); 0.084% of 360,000 active; AID 624465; in the data active = activation above about 40%; inconclusive = about 15% to 40%; inactive = below about 15%; further: compound concentration not given in the record; the text of the record calls up to 30% inactive
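DiscoveRx PathHunter D2 beta-arrestin cells (2,100/well) attached overnight, then compound-stimulated 90 min at 37 C in HBSS/10 mM HEPES/0.1% Tween-20 buffer; beta-galactosidase complementation read by luminescence after 1 h at ambient temperature. Dopamine 57 uM final (EC100) as control.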
Starred values were filed as active, the others as inactive; ? = inconclusive; / = not tested or not shown; & = joins results of further samples; [ ] = remark or other dose.

SMILES	D2 PAM	Six1-Eya2 inh	TRPML1 inh	PINK1 expr mod	TRPML1 ag	D2 ag
O=C(CCCOc1ccccc1)NNC(=O)c1ccncc1	-4	7	0	0.8%	-0.5	-2.9
CCn1nc(C(=O)NNS(=O)(=O)c2cc(/C=C/C(=O)O)cc(OC)c2OC)c2ccccc2c1=O	-12	-2	4	1.1%	0.4	-4.5
O=C1Nc2c(c(=O)[nH]c(=O)n2Cc2ccccc2)C1(NS(=O)(=O)c1ccccc1)C(F)(F)F (stereo unspecified)	-2	5	0	0.5%	0.4	-2.2
COc1ccc(OC)c(CCNc2nccn(-c3ccc(C)c(C)c3)c2=O)c1	/	/	16	-0.4%	2.1	/
O=P(c1ccc2c(c1)OCCO2)(N1CCOCC1)N1CCOCC1	-28	1	8	-1.3%	0.9	-4.0
O=C(NCCS(=O)(=O)NCc1ccccc1Cl)c1ccccc1	6	3	-15	-1.0%	-0.8	2.6
CCOC(=O)c1cc(-c2ccccc2)n(-c2cccc(C(=O)Nc3cccc(C(C)=O)c3)c2)c1C	/	/	15	2.2%	1.5	/
O=C(O)c1cc2cc(Cl)cc(Cl)c2oc1=O	6	?	-14	1.5%	-0.1	-2.1
COCCSc1ccccc1C(=O)Nc1cc([N+](=O)[O-])ccc1OC	-27	0	1	-2.1%	3.8	5.5
CCN(CC)c1ccc(C(=O)N/N=C(\C)c2cccnc2)cc1	-10	6	14	0.2%	-0.9	-2.6
CCCn1c(SCc2ccccc2)nc2c1c(=O)[nH]c(=O)n2C	-7	7	10	0.9%	3.4	-2.5
Cc1cc(NC(=O)Nc2nnc(N(C)C3CCCCC3)s2)ccc1Br	/	/	-24	-0.5%	0.2	/
CCCOc1ccc(C(=O)N2CCN(c3ccc(N)cc3Cl)CC2)cc1	-3	-18	3	1.6%	-1.2	-3.3
O=C1NN(c2ccccc2)C(=O)C2C3C=CC(C4CC34)C12 (stereo unspecified)	-4	-1	15	5.0%[38.3 µM]	-0.2	-2.0
O=C(Nc1cccc(-n2cnnn2)c1)c1cnccc1Cl	-2	2	9	2.4%	0.3	-1.8
COc1cc(Cn2c3ccc(NC(=O)CCc4ccc(O)cc4)cc3c(=O)n2C)ccc1F	13	-28	/	8.0%	-0.3	7.4
CCOC(=O)c1c(C)[nH]c(C(=O)COC(=O)c2cnccn2)c1C	0	-2	24	1.9%	1.9	10
CCCCCCC(=O)NNC(=O)c1c(O)c2ccccc2n(CCC)c1=O	-6	-17	2	23%	1.7	-1.0
O=C(CCc1ccccc1)N/N=C\c1cc2c(cc1Br)OCO2	-13	-7	14	4.3%	3.1	0.7
COc1ccc(CCN2CC(C(=O)Nc3ccc4c(c3)OCO4)CC2=O)cc1OC (stereo unspecified)	-4	28	-5	-2.4%	-0.1	-2.5
CC(NC(=O)C1CCCC1)C1CC2CCC1C2 (stereo unspecified)	4	7	-4	0.2%	-1.5	-7.6
O=C(Nc1nc(-c2ccc([N+](=O)[O-])cc2)cs1)C1=COCCO1	2	-6	-4	1.6%	-0.7	4.2
COc1ccc(C)cc1-n1nnnc1SCc1nc(N)nc(N(C)C)n1	-8	37	10	2.6%	2.3	-1.3
O=C(COC(=O)c1cccnc1Cl)Nc1cc(S(=O)(=O)N2CCCCCC2)ccc1Cl	-5	-7	12	2.0%	2.9	1.1
Cc1c(-c2ccc(Cl)cc2)c(=O)oc2c(CN3CCN(CCO)CC3)c(O)ccc12	/	/	-9	-0.3%	-0.5	/
Cc1ccc(NC(=O)CCS(=O)(=O)c2cccc3nonc23)cc1Cl	4	-6	19&-3	3.2%&2.3%	0.8&1.4	-5.0
Cc1ccc(C)c(C(=O)CN2C(=O)NC3(CCc4ccccc43)C2=O)c1 (stereo unspecified)	-1	2	-6	-0.8%	0.2	-5.1
COc1ccc(Cl)cc1N(CC(=O)N1CCCCCC1)S(C)(=O)=O	-7	5	-6	-0.2%	0.5	-4.9
COc1cccc(-c2ccc3c(N)c(C(=O)c4ccc(Cl)cc4)sc3n2)c1	/	/	-10	1.6%	13	/
COc1ccccc1NC(=O)Nc1nc(CC(=O)NC2CCCC2)cs1	-18	-6	2	0.4%	-0.1	-0.8
COc1ccc(N2CCN(C(=O)COC(=O)CCOc3ccc(C(C)(C)C)cc3)CC2)cc1	-32	0	7	21%	0.0	-9.4
CCN(CC(=O)Nc1sc2c(c1C#N)CCCC2)CC(=O)NC1CCS(=O)(=O)C1 (stereo unspecified)	2	-1	3	0.5%	-0.4	-1.0
O=C(Cn1ncc2c3ccccc3n(Cc3ccccc3F)c2c1=O)NC1CCCCCC1	/	/	41	0.8%	-0.2	/
COC(=O)CCC(=O)NNC(=O)CCC(=O)Nc1cccc(Cl)c1C	-2	0	21	0.1%	-0.2	-2.0
CCOCCCNS(=O)(=O)c1ccc2c(c1)OCCO2	-3	0	-11	0.9%	-0.8	-0.5
O=C(O)c1ccc(NC(=O)C2(c3ccccc3)CCCC2)cc1	-3	1	1	-1.9%	0.4	-5.7
CCCN(CCC)S(=O)(=O)c1ccc(C(=O)N2CCCc3ccccc32)cc1	-11	1	15	0.7%[38.3 µM]	2.6	1.0
COc1ccc(C(C)(C)NC(=O)C2CCC(=O)N(CCCN3CCCC3=O)C2)cc1 (stereo unspecified)	-9	3	-12	0.0%	-0.4	-1.7
COc1ccc(-n2ncc3c2CC(C)(C)CC3NC(=O)C2CCN(C(C)=O)CC2)cc1 (stereo unspecified)	-10	-1	6	-0.5%	-0.8	1.4
O=C(NCC1CCCN(C(=O)NCc2ccccc2)C1)c1ccc2c(c1)OCO2 (stereo unspecified)	-6	1	12	-2.3%	0.3	1.7
O=C(CSc1nnc(-c2ccccn2)o1)Nc1ccccc1C(F)(F)F	5	?	-26	1.5%	1.0	0.9
O=C(CCCc1ccccc1)Nc1ccnn1C1CCN(Cc2ccccn2)CC1	-26	-1	7	0.1%	-0.1	-6.1
O=C1c2cccc(Sc3ccccc3)c2C(=O)c2c(Sc3ccccc3)cccc21	-19	?	17	1.5%	0.4	-0.7
CCOc1ccccc1C1CC(=O)NC(SCC)=C1C#N (stereo unspecified)	-9	5	-8	/	0.4	-2.1
CCCS(=O)(=O)NC(=O)C1(C)CCCN(C(=O)c2ccc(SC(F)(F)F)cc2)C1 (stereo unspecified)	0	5	/	-0.5%	-0.9	-1.3
Cc1ccc(N/C=C2\CCCCC2=O)nc1	-6	1	3	-0.7%	0.0	-2.6
CN(C)c1cccc(C(=O)Nc2nnc(Cc3ccccc3)s2)c1	3	27	3	2.7%	4.7	3.4
Nc1nc(N2CCN(c3cccc(Cl)c3)CC2)n[nH]1	-1	-6	11	0.7%	0.8	-1.6
COc1ccc(COC(=O)C2=C(C)NC(=O)NC2c2cccc(OC)c2OC)cc1 (stereo unspecified)	-12	0	0	3.7%	-0.9	-0.2
CN(C)C(=O)c1cccc(-c2cnc3c(NC=O)cc(-c4ccccc4N(C)C)cn23)c1	15	-7	/	2.4%	6.2	11
CCc1noc(-c2ccc(N3CCCCC3C)c([N+](=O)[O-])c2)n1 (stereo unspecified)	/	/	77	1.4%	-0.1	/
CN(C)S(=O)(=O)c1ccc(Cl)c(NC(=O)CN2CCCCCC2)c1	-22	-2	3	1.3%	0.8	-2.6
CC1(C)Cc2c(cnn2-c2ccc(F)cc2)C(NC(=O)CCCN2CCCCC2=O)C1 (stereo unspecified)	10	2	-10	2.7%	-0.6	-1.6
Cc1cc(C)n2nc(C(=O)OCCOc3ccc(F)cc3)nc2n1	-18	-1	-9	-1.0%	0.3	-2.7
O=C(NCCCn1ccnc1)c1ccc(COc2ccccc2)o1	-14	-3	-1	4.4%	-0.6	-5.1
Cc1cc(Br)c(NC(=O)CCNC(=O)OCc2ccccc2)cc1C	-15	3	38	-0.7%	1.9	-1.0
CC(C)Sc1nc(NCc2ccco2)c2c3c(sc2n1)COC(C)(C)C3	-7	-4	55	2.1%	0.6	0.6
O=C(N/N=C/c1ccccc1[N+](=O)[O-])c1ccc2c(c1)OCCO2	1	3	-29	6.4%	1.1	4.8
CC12CCC(C(=O)N(NC(=O)c3cc(Cl)ccc3O)C1=O)C2(C)C (stereo unspecified)	-17	-3	-3	-1.6%	-0.3	-1.9
Cc1ccc(S(=O)(=O)c2cnc(SCC(=O)Nc3ccccc3C(F)(F)F)[nH]c2=O)cc1C	/	/	-11	-0.6%	1.5	/
Next section:
SMILES	D2 PAM	Six1-Eya2 inh	TRPML1 inh	PINK1 expr mod	TRPML1 ag	D2 ag
COc1ccc(OCCCC(=O)Nc2cccc(S(=O)(=O)N3CCCCCC3)c2)cc1	-1	-14	-7	0.2%	0.9	6.3
COc1ccc(Nc2nnc(C)c(=O)[nH]2)c(OC)c1	2	3	-1	1.1%	-0.4	-6.4
COC(=O)CC1=NC(=O)CS1	-10	-8	-28	-2.1%	-0.2	-2.9
C/C=C/c1ccc(OCCCCN2C(=O)NC(C)(C)C2=O)c(OC)c1	5	16	-8	23%[38.3 µM]	0.8	-3.7
NS(=O)(=O)c1ccc(CCNCC(=O)NC2CC2)cc1	-5	9	7	-2.3%	0.4	0.3
CCC1CCCCN1C(=O)CNCC1CCCO1 (stereo unspecified)	-3	0	/	0.3%	/	-5.3
O=C(CSc1nnnn1-c1ccc(F)cc1)NC1CCCCC1	7	1	11	0.7%	-0.3	-1.9
O=C(CCC(=O)c1ccccc1)NCCOc1ccccc1	2	6	2	4.0%	0.1	8.5
CNC(=O)C1CCC(Cn2c(=O)[nH]c3ccsc3c2=O)CC1 (stereo unspecified)	/	/	13	0.1%	0.0	/
OC(Cc1cccnc1)c1ccccc1 (stereo unspecified)	-7	5	-8	-1.6%	0.3	-3.8
Nc1c(C(=O)Nc2ccc3c(c2)OCCO3)nnn1Cc1ccccc1Cl	6	-14	-4	-1.1%	4.8	3.1
O=C(Nc1ccc2c(c1)CCC2)c1cccc(S(=O)(=O)N2CCN(c3ccc(F)cc3)CC2)c1	1	-16	39	-0.6%	-0.7	-7.9
Cc1noc(NS(=O)(=O)c2ccc(NC(=O)C(F)(F)C(F)(F)C(F)(F)F)cc2)c1C	-7	9	4	0.7%	-1.1	-3.0
Cc1ccc(/C=C/C2=NN(Cc3ccccc3)C(=O)CC2)cc1	-6	-1	22	-2.2%	1.2	-0.4
COc1cccc(/C=N/NC(N)=S)c1OCc1cccc(Cl)c1	-5	-15	-12	1.3%	1.1	-4.4

Reformatted: results already given.
Below each compound: D2 PAM, Six1-Eya2 inh, TRPML1 inh, PINK1 expr mod, TRPML1 ag, D2 ag
> C/C=C/c1ccc(OCCCCN2C(=O)NC(C)(C)C2=O)c(OC)c1
→ 5, 16, -8, 23%[38.3 µM], 0.8, -3.7
> NS(=O)(=O)c1ccc(CCNCC(=O)NC2CC2)cc1
→ -5, 9, 7, -2.3%, 0.4, 0.3
> CCC1CCCCN1C(=O)CNCC1CCCO1 (stereo unspecified)
→ -3, 0, /, 0.3%, /, -5.3

Assay outcomes deposited in PubChem BioAssay by National Center for Advancing Translational Sciences (NCATS).

This is a random part of the collection; about 1% have a hit in one of these screens.
